KSHV LANA nucl – inhibitors of KSHV LANA-nucleosome binding, primary screen, biochemical, fluorescence polarization, FITC-LANA1-23, chicken nucleosomes. FITC-LANA1-23 / chicken nucleosome fluorescence polarization; stronger effect = lower value. z-score (test concentration not listed). 0.3% of 51,000 active;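 active = both repeat wells score below -2 in polarization z-score versus plate sample wells, excluding overly bright wells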;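 also: 100 nL library stock added to about 30 µL; numbers are from one replicate; some results filed as inactive read as strong as hits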
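System – purified chicken nucleosomes with FITC-labelled LANA N-terminal peptide (1-23) · Amount – 240 nM purified chicken nucleosomes (480 nM peptide binding sites), final · Also added – 50 nM FITC-LANA1-23 probe · Medium – TEN-BT buffer, pH 7.5 · Incubation – compound with peptide–nucleosome mix 10–45 min at room temperature · Detection – fluorescence polarization, ex 480 nm, em 535 nm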
Ab BasE inh – BasE siderophore enzyme inhibitors, primary screen, biochemical, Acinetobacter baumannii ATCC 17978, fluorescence polarization; purified BasE, fluorescence polarization binding displacement; inhibition, % (no concentration beside the values); 0.1% of 84,000 active;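 active = both replicates above 25% with normal brightness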;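 also: 0% = negative plate control signal and 100% = positive plate control signal; stock transfer was 100 nL into about 30 µL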
Numbers without * were called inactive; . = not tested or not shown.

Screens in order: Ab BasE inh, KSHV LANA nucl
Cc1ccc(-n2c(C)c(Cc3ccccc3)[nH]c2=O)cc1
    -2.4, .
O=S(=O)(Nc1ccccc1O)c1ccc2ccccc2c1
    -11, -0.049
COC(=O)C1=CN(C2CC2)C=C(C(=O)OC)C1c1ccsc1
    -5.1, 1.1
CC(C)NC(=S)Nc1cccc(C(=O)O)c1
    1.0, -1.5
COc1cc(/C=N/n2c(=S)[nH]nc(C)c2=O)ccc1OCC(=O)N1CCOCC1
    4.7, .
CC(C)CNc1n[nH]c(=S)s1
    -1.0, .
CCCSc1ncc(Cl)c(C(=O)Nc2c(C)n(C)n(-c3ccccc3)c2=O)n1
    3.1, 0.79
C=CCn1c(SCC(=O)NCc2ccc3c(c2)OCO3)nnc1-c1ccccc1F
    -2.0, .
CC1CC2CC(=O)CC(C1)C2 (stereo not given)
    -0.2, 1
Cc1ccc2nc(NC(=O)NC3CC(=O)N(c4ccc5c(c4)OCCO5)C3)sc2c1 (stereo not given)
    1.2, -0.66
Cc1cccc(OCC(=O)OC2CCN(C)CC2)c1
    1.9, 0.29
COc1ccc(N2CCN(C(=O)CCNS(=O)(=O)c3ccccc3)CC2)cc1
    -4.6, 1.5
Cn1ccnc1SCCS(=O)(=O)c1ccccc1
    -0.4, .
Cc1ccc(NC(=O)c2ccc3snnc3c2)cc1
    -2.9, 0.29
O=C(OCC(=O)c1c[nH]c2ccccc12)c1cncc(Br)c1
    -8.3, .
Cc1nc2c(Cl)c(Cl)ccc2s1
    2.0, -0.12
CCCCNC(=S)N1CC2(C)CC1CC(C)(C)C2 (stereo not given)
    -0.4, .
Cc1cnc(C(=O)OCC(=O)N(C)c2ccccc2)cn1
    1.1, .
CN(C(=O)Cn1nnc(-c2cccs2)n1)C1CCCc2ccccc21 (stereo not given)
    -0.8, .
CCC(C)N1C(=O)S/C(=C/c2ccc3c(c2)n(C)c(=O)n3C)C1=O (stereo not given)
    4.4, .
CCOc1ccc2c(c1)sc(=NC(=O)c1cc3ccccc3cc1OC)n2C
    2.6, .
CN(C)/N=C/C=C1\CC/C(=C\c2ccccc2)C1=O
    2.5, .
Cc1ccc(S(=O)(=O)N2CCN(c3cnn(-c4ccccc4)c(=O)c3Cl)CC2)cc1
    -0.7, -0.057
O=C(CCc1c[nH]c2ccccc12)N1CCN(S(=O)(=O)c2ccc3c(c2)OCCO3)CC1
    0.0, .
N#Cc1nc(-c2ccccc2)oc1N1CCOCC1
    1.2, .
CC(C)(C)C(=O)CSc1nc(N)cc(N)n1
    -1.2, .
O=C1CCCN1C(=O)CSc1nc2cc(Cl)ccc2s1
    -3.1, .
O=C(NC1CCCCC1)C1CCN(C(=O)c2ccco2)CC1
    -0.3, -0.64
CCN(CCCN1C(=O)CSC1c1ccc(OC(F)F)c(OC)c1)c1ccccc1 (stereo not given)
    -0.6, .
CN1CCc2cc(Cl)c(O)cc2[C@@H](c2ccccc2)C1
    ., -0.62
COc1ccccc1N1CCN(C(=O)C(C)c2ccc(CC(C)C)cc2)CC1 (stereo not given)
    -0.7, -0.34
Cc1ccc(CCNC(=O)CCCn2c(=O)c3ccccc3n(CC(N)=O)c2=O)cc1
    1.4, -0.08
OC(CNCc1ccco1)CON=C1c2ccccc2-c2ccccc21 (stereo not given)
    -8.8, 0.94
O=C(NCc1ccccc1)C(c1ccccn1)N(C(=O)c1csnn1)C1CC1 (stereo not given)
    0.3, -1.4
CN(CC(=O)O)C(=S)c1ccccc1
    -0.5, .
Cc1ccc(S(=O)(=O)N(C)c2nc3ccccc3nc2Sc2nnnn2C)cc1
    0.1, .
CCOC(=O)c1c(C)n(C)c2ccc(OCC(O)CNC(C)(C)C)cc12 (stereo not given)
    -9.5, -0.17
CCn1nnc2c(N3CCN(C=O)CC3)ncnc21
    -0.9, -0.36
COc1ccc(NC(C)=O)cc1NC(C)C(=O)N1CCCc2ccccc21 (stereo not given)
    0.1, .
Nc1nc(N)c2c(n1)CCCC2
    0.1, -0.61
CC(c1ccccc1)N(Cc1ccccc1)C(=S)Nc1ccccc1 (stereo not given)
    0.6, .
O=c1cc(COc2ccccc2)nc2sccn12
    -0.4, 0.47
O=C(O)C1CCCN(C(=O)c2cnn(-c3ccccc3)c2-n2cccc2)C1 (stereo not given)
    0.4, 0.43
COc1ccc(NS(=O)(=O)N(C)C)c(OC)c1
    -0.1, 0.68
CC(C)(C)NC(=O)CN1CCN(CCC#N)CC1
    1.7, .
CCN(CC)C(=O)c1ccc(C(C)(C)C)cc1
    1.8, .
COc1ccc(CCN2Cc3nc4ccccc4c(=O)n3CC2=O)cc1
    0.5, .
Cc1cc(NC(=O)C(C)C)n(-c2nc3ccccc3s2)n1
    2.0, .
O=C1C2C3c4ccccc4C(c4ccccc43)C2C(=O)N1/N=C/c1ccco1 (stereo not given)
    -1.0, -0.34
O=C(CCN1C(=O)c2ccccc2C1=O)NCCc1ccccc1
    -2.2, 1.4

Random excerpt: two compounds from above, in no set order.
Screens in order: Ab BasE inh, KSHV LANA nucl
CC(c1ccccc1)N(Cc1ccccc1)C(=S)Nc1ccccc1 (stereo not given)
    0.6, .
O=C(O)C1CCCN(C(=O)c2cnn(-c3ccccc3)c2-n2cccc2)C1 (stereo not given)
    0.4, 0.43

(next part)
Screens in order: Ab BasE inh, KSHV LANA nucl
CC(=O)Nc1scc2c1c(=O)oc1ccccc12
    0.8, -0.046
CCCn1c(C)cc(/C=C(\C#N)C(=O)OCn2nnc3ccccc3c2=O)c1C
    -4.7, .
CN(C)C(Cc1ccccc1)C(=O)c1cccn1C (stereo not given)
    1.0, .
CC1=C(C(=O)N2CCN(c3ccccc3)CC2)C2(CCN(S(C)(=O)=O)CC2)OC1=O
    0.8, .
O=C(CSc1nc2ccsc2c(=O)n1NC(=O)c1ccccc1)NCc1ccco1
    1.0, 0.079
COC(=O)c1c(NC(=S)N(C)Cc2c(C)nn(C)c2C)sc2c1CCC2
    -1.4, 0.1
CCOc1ccc(-n2c(SC(C)C(=O)NC(N)=O)nc3ccccc32)cc1 (stereo not given)
    -4.0, .
O=C(CCN1CCOCC1)Nc1ccc(S(=O)(=O)Nc2cc(Cl)cc(Cl)c2)cc1
    -1.8, -0.24
CC(C)/C=N/NC(=O)c1cccc(N2CCCC2=O)c1
    -6.5, -0.22
O=C(Nc1nn2cnnc2s1)c1ccncc1
    1.2, .

Arranged by the number under KSHV LANA nucl (rising): three of the compounds above.
structure | KSHV LANA nucl
O=C(CCN1CCOCC1)Nc1ccc(S(=O)(=O)Nc2cc(Cl)cc(Cl)c2)cc1 | -0.24
CC(C)/C=N/NC(=O)c1cccc(N2CCCC2=O)c1 | -0.22
CC(=O)Nc1scc2c1c(=O)oc1ccccc12 | -0.046

Next part:
Screens in order: Ab BasE inh, KSHV LANA nucl
CCOC(=O)COc1ccc2c3c(c(=O)oc2c1C)CCC3
    -0.9, 0.27
COc1cccc(-n2cc(C(=O)N(C)C3CCCCC3)c3ccccc3c2=O)c1
    -0.8, -0.3
O=P1(c2ccccc2)C=CC(O)C1 (stereo not given)
    2.3, .
CCCN(C(=O)CSc1nnc(-c2ccco2)o1)C1=CCCCC1
    1.7, .
COc1cc(C)c(COc2ncnc3ccccc23)cc1OC
    0.8, .
CCOC(=O)C1CCCCN1Cc1ccco1 (stereo not given)
    0.0, -1
Cc1cc(=O)n2c(n1)sc1ccccc12
    -1.6, -0.072
CCc1ccc2c(CNC(CC)CC)cc(=O)oc2c1
    2.7, .
Cc1ccc(S(=O)(=O)/C(C#N)=C/c2ccccc2)cc1
    2.8, -0.1
Cc1ccc(S(=O)(=O)C(F)F)cc1S(=O)(=O)C(F)F
    1.4, .
CCOC(=O)c1ccc(NC(=O)CN2C(=O)c3ccccc3C2=O)cc1
    1.8, -0.39
CCOC(=O)N1CCN(C(=O)CCc2nc3sc4c(c3c(=O)[nH]2)CCCC4)CC1
    0.6, -0.095
Cc1ccc(S(=O)(=O)N2CCN(CC(=O)N=Nc3c(O)[nH]c4c(C)c(C)ccc34)CC2)cc1
    -0.8, .
O=C(O)c1cc(Cl)c(Cl)cc1C(=O)O
    3.9, -0.59
CNC(=O)CSc1nnc(-c2ccc3c(c2)OCO3)o1
    2.9, .
CCCCn1c(SCC(=O)NC(C)(C)C)nnc1-c1ccncc1
    1.5, -0.49
CCn1nnc(NC(=O)COc2ccccc2)n1
    -0.9, -0.046
O=C(CSc1ncnc2ccccc12)N1N=C2/C(=C/c3ccco3)CCCC2C1c1ccco1 (stereo not given)
    -1.1, .
O=C(COCc1cc(-c2ccco2)on1)N1CCCCC1
    0.6, 0.36
NCCc1nc(-c2ccccc2)no1
    2.3, -0.41
CC1CCC(C(C)C)C(N(Cc2ccccc2)C(=O)c2cccs2)C1 (stereo not given)
    -0.8, .
CC(=O)OC(OC(C)=O)C12C=CC(O1)C1C(=O)N(c3ccccc3-c3ccccc3)C(=O)C12 (stereo not given)
    3.8, 0.3
COCCNC(=O)c1ccc(CS(=O)(=O)c2c(Cl)cccc2Cl)o1
    -1.2, 1.3
NC1CCN(Cc2cccc(F)c2)CC1
    -1.5, 0.52
Oc1ccc(/C=N\n2cnnc2)cc1
    ., -0.76
COc1cc(-c2nnc(SCC(=O)c3ccc(CC(=O)N4CCOCC4)s3)o2)cc(OC)c1OC
    -1.0, .
O=S(=O)(c1cccs1)N1CCCC2C=CC=CC21 (stereo not given)
    -0.1, 0.39
Cc1cc(C(=O)c2cc3cc(Cl)ccc3o2)ccc1Cl
    -1.0, .
Cc1nc2c(ccc3nc(Nc4nc5cc6c(cc5s4)OCCO6)sc32)s1
    -0.2, -0.6
COCCN1Cc2cccc(C(=O)N(CC(=O)NC3CCCCC3)Cc3ccc4c(c3)OCO4)c2C1=O
    0.9, -0.054
CC(=O)N(CCN(C)C)c1nc2c(F)cccc2s1
    0.6, -1.1
COc1ccc(NCC(=O)/C(C#N)=C(\C)Nc2ccc(OC)cc2)cc1
    0.5, .
CCC1CSC(Nc2ccc(OC)cc2)=N1 (stereo not given)
    2.0, .
Nc1nc2c(s1)c(=O)[nH]c(=O)n2-c1ccc(Cl)cc1
    -2.5, 0.025
CCN(CC)CCSc1nc2ccc(OC)cc2[nH]1
    3.5, 0.34
CN1CCN(C(=O)c2ccc(-c3cccs3)s2)CC1
    ., -0.84
Cc1ccc(CC(C#N)Sc2nccn2C)cc1 (stereo not given)
    -3.9, .
CCc1cc(-c2oncc2-c2ccc(Br)cc2)c(O)cc1OC
    -0.2, -0.28
CCCCCn1c(C)c2c(OCC)cccc(=O)c2c1C
    -5.3, 0.64
CC1(C)C(=O)Nc2ccccc2N1C(=O)COC(=O)c1ccc(S(=O)(=O)C(F)F)cc1
    1.6, .
CCOC(=O)c1cc2c(=O)n3ccccc3nc2n(Cc2ccco2)c1=NC(=O)c1ccccc1
    0.5, -0.018
NNC(=O)C1=CC(C(=O)c2cccs2)=NN(c2ccccc2)C1C(=O)NN (stereo not given)
    -1.9, .
Cc1[nH]n(-c2ccccc2)c(=O)c1C=NC(C)C
    3.6, .
COC(=O)c1cc(COC(=O)CNC(=O)c2ccc(Br)cc2)oc1C
    2.7, .
Cc1c(C(=O)NCc2ccco2)cc(-c2ccccc2)n1CCSCc1c(F)cccc1Cl
    1.2, .
Cc1cc(C)c2c(N)nn(C)c2n1
    1.7, 0.26
OCCc1c[nH]c2ccc(OCc3ccccc3)cc12
    0.3, -0.48
NNC(=O)CNc1ccccc1
    3.7, .
N#C/C(=C\NC(=O)c1ccccc1)C(=O)N1CCOCC1
    4.2, .
O=C(CN1C(=O)c2ccccc2C1=O)N1CCCC1
    2.2, -0.84

(cont.)
Screens in order: Ab BasE inh, KSHV LANA nucl
CSC1=NCCN1C(=O)c1cccc(C)c1
    1.1, 0.37
c1ccc2[nH]c(C3CCCO3)nc2c1 (stereo not given)
    -0.9, 0.086
CN1CCN(c2ncc3c(=S)[nH]c(=S)[nH]c3n2)CC1
    -0.6, .
CN=c1scc(-c2cc(C)n(CCC(C)C)c2C)n1C
    2.6, .
CCCCSc1ccc(NCCC(=O)c2ccco2)cc1
    -0.3, -1.1
CC(C)C(C(C#N)C#N)C1C(=O)NC(=S)NC1=O (stereo not given)
    0.2, .
COc1ccccc1CNC1CCCCC1C (stereo not given)
    -2.7, -0.033
COc1cccc(/C=N/O)c1O
    2.9, .
C=CS(=O)(=O)C(C)CC(N)=O (stereo not given)
    2.8, .
CSc1cccc(NC(=O)CSc2nnc(COc3ccccc3)o2)c1
    -2.3, 3.4

Single records, as listed above. Values in the order: Ab BasE inh | KSHV LANA nucl
CCC(C)N1C(=O)S/C(=C/c2ccc3c(c2)n(C)c(=O)n3C)C1=O (stereo not given) in the list: 4.4 | .
CN(CC(=O)O)C(=S)c1ccccc1 in the list: -0.5 | .
O=C(OCC(=O)c1c[nH]c2ccccc12)c1cncc(Br)c1 in the list: -8.3 | .

Further results:
Screens in order: Ab BasE inh, KSHV LANA nucl
O=C(CN1CCC(C(=O)O)CC1)Nc1ccccc1Oc1ccccc1
    -0.4, -0.63
Cc1cccc(-n2c(Sc3nnnn3-c3ccccc3)nc3ccccc3c2=O)c1C
    1.8, .
COC(=O)c1cc2ccc3c(c2oc1=O)CN(c1ccccc1)CO3
    1.2, -0.53
C=Cn1c(C)c(C(C#N)=C(C#N)C#N)c2c1CCCC2
    1.9, 0.19
Cc1ccc(C2/C(=C(\O)c3ccc(Br)cc3)C(=O)C(=O)N2CCCN(C)C)cc1 (stereo not given)
    2.8, .

Some values from the entries so far:
KSHV LANA nucl with COC(=O)c1cc2ccc3c(c2oc1=O)CN(c1ccccc1)CO3 reads -0.53
KSHV LANA nucl with C=Cn1c(C)c(C(C#N)=C(C#N)C#N)c2c1CCCC2 reads 0.19

From PubChem BioAssay

Only part of the results is shown (hit frequency here may not be typical).
